Screening results deposited in PubChem BioAssay by several laboratories.
CBX7 inh = CBX7 chromodomain binding inhibitors, primary screen, biochemical, AlphaScreen | normalised signal (fraction of DMSO) (test concentration not listed) | Chromobox protein homolog 7 (Homo sapiens), O95931 | AlphaScreen His6-CBX7 / biotin-H3K27me3 peptide binding; stronger effect = lower value | actives 1.1% (n = 66,000); in the data active = normalised signal below about 0.5;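 note: 100 nL library stock added to about 20 µL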
Target sequence (O95931 whole entry, looked up): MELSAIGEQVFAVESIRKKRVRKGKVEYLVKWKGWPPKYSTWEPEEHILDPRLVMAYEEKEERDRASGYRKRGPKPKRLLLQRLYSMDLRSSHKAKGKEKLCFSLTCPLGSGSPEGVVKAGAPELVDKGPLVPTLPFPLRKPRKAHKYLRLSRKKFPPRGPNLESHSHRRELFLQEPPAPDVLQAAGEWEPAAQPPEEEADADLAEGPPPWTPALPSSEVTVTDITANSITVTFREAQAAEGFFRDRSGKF
CBX7 inh z-score = further read-out of CBX7 inh, marked with its call; z-score; measured here: z-score of CBX7 signal; some inactives read as strong as hits; reference of the scale not given here;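 same signal on another scale; lower means less binding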
* marks the source's active call; other numbers are inactive results. The list is partial, so the mix of outcomes need not match the whole.

SMILES	CBX7 inh	CBX7 inh z-score
CNc1ccc(C)cc1C(=O)c1cccc(Br)c1	0.42*	-12*
COc1cccc(/C=C/c2nc3ccccc3c(=O)n2-c2ccc(C)cc2)c1	1	0.44
O=C(c1ccccc1Cl)c1cc(Br)ccc1NC(=O)c1c(F)cccc1F	0.9	-0.45
O=c1c2ccccc2nc(/C=C\c2ccc(F)cc2)n1-c1ccc(Br)cc1	0.94	-0.06
CC(=O)N1CC(=O)Nc2ccc(Br)cc2C1c1ccccc1 (stereo not drawn)	0.98	-0.27
O=C(Nc1ccc(Cl)cc1C(=O)c1ccccc1)c1ccc(Oc2ccccc2)cc1	0.88	-0.75
O=c1c2ccccc2nc(-c2ccccc2F)n1-c1cccc(Cl)c1	0.89	-0.25
CCOc1cc(CNCCc2c(C)[nH]c3ccc(OC)cc23)ccc1OC	0.72	-4.3
COc1ccc(/C=C/c2nc3ccccc3c(=O)n2-c2ccc(F)c(Cl)c2)cc1O	1.1	2.2
CCOC(=O)c1c(C)n(Cc2ccccc2)c2ccc(OCC(O)Cn3nc(C)cc3C)cc12 (stereo not drawn)	0.7	-3.4
O=C(CCN1CCOCC1)Nc1ccc(Cl)cc1C(=O)c1ccccc1	0.91	-0.57
CCOc1ccc(-n2c(/C=C/c3ccccc3)nc3ccccc3c2=O)cc1	0.99	-0.096
Cc1ccc(F)cc1-n1c(/C=C\c2ccc(F)c(F)c2)nc2ccccc2c1=O	1.1	0.12
COc1ccc2[nH]c(C)c(CCNCc3nc[nH]c3C)c2c1	0.0075*	-2*
CC(C)(C)c1ccc(OCC(=O)Nc2ccc(Cl)cc2C(=O)c2ccccc2)cc1	0.93	-0.49
COc1ccc(-n2c(-c3ccccc3)nc3ccccc3c2=O)cc1	0.99	-0.21
CCC(=O)N1c2ccc(C)cc2[C@@H]2CN(C)CC[C@@H]21	0.96	-0.47
COc1ccc(NC(=O)C2c3cc(OC)c(OC)cc3C(=O)N3CCCCC23)cc1Cl (stereo not drawn)	1.2	1.8
COc1cc(/C=C/c2nc3ccccc3c(=O)n2-c2ccc(C)cc2)ccc1O	1.3	1.1
C=CCOc1ccc(C2SCC(=O)Nc3c2c(=O)[nH]n3C(C)CC)cc1 (stereo not drawn)	1	-0.067
O=c1c2ccccc2nc(/C=C/c2ccc(F)cc2)n1-c1ccc(F)c(Cl)c1	1.2	2
COc1cc(NC(=O)CN2C(=O)CN=C(c3ccccc3)c3cc(Cl)ccc32)cc(OC)c1OC	1.1	0.81
CCC(=O)N1CC(=O)Nc2ccc(F)cc2C1c1ccc(F)cc1 (stereo not drawn)	0.96	-0.17
COc1ccc(/C=C/c2nc3ccccc3c(=O)n2-c2ccc(F)cc2Cl)cc1	1.1	1.7
CCC(C(=O)Nc1cccc(OC)c1)N1C(=O)CN=C(c2ccccc2)c2cc(Cl)ccc21 (stereo not drawn)	0.76	-3.5

Later entries:
SMILES	CBX7 inh	CBX7 inh z-score
CC(C)n1[nH]c(=O)c2c1NC(=O)CSC2c1ccc2c(c1)OCO2 (stereo not drawn)	1	0.36
CCCC1=Nc2cc(C(=O)NCc3ccc(OC)cc3)ccc2Sc2ccccc21	0.88	-1.8
O=C(CN1C(=O)CN=C(c2ccccc2F)c2cc(Cl)ccc21)Nc1ccccc1C(F)(F)F	0.95	-0.96
Clc1cccc(C2NCc3ccccc3-n3cccc32)c1 (stereo not drawn)	0.94	-3
Cc1cccc(-n2c(/C=C\c3ccc(F)cc3)nc3ccccc3c2=O)c1	1.3	9.5
O=c1cccc2n1CC1CC2CN(c2ncnc3c2cnn3-c2ccc(Cl)cc2)C1 (stereo not drawn)	1	0.7
O=c1c2ccccc2nc(/C=C\c2cccc(C(F)(F)F)c2)n1-c1cccc(F)c1	1.2	4.9
CC(=O)c1ccc(C(=O)Nc2ccc(Br)cc2C(=O)c2ccccc2)cc1	0.99	-0.42
CCN(CC)C(=O)c1ccc(NC(=O)Cn2nc(-c3ccc(Cl)cc3)c3ccccc3c2=O)cc1	0.95	-0.6
Clc1cccc(C2CC(c3cccnc3)Nc3ncnn32)c1 (stereo not drawn)	1.1	2.2
COc1ccc(Cl)cc1NC(=O)C1c2ccccc2C(=O)N2CCCCC12 (stereo not drawn)	1.2	1.9
O=c1cccc2n1CC1C[C@@H]2CN(S(=O)(=O)c2ccc(F)cc2)C1	0.96	-0.98
Cc1ccc(-n2nc(C)c3c(C)c(CCC(=O)N4CCC5(CC4)OCCO5)c(C)nc32)cc1	1.2	1.6
OC(c1ccccc1)(c1cccs1)C1CN2CCC1CC2 (stereo not drawn)	1.3	2.8
CC(=O)c1ccc(C(=O)Nc2ccc(Cl)cc2C(=O)c2ccccc2)cc1	0.97	-0.95
COc1ccc2c3c1OC1C[C@@H](OC(C)=O)C=C[C@@]31CN(C)CC2 (stereo partly drawn)	1	-0.047
O=C(c1cnn(-c2ccccc2)c1-n1cccc1)N1CCC2(CC1)OCCO2	1.1	2.5
Cc1ccc(NC(=O)CN2C(=O)CN=C(c3ccccc3)c3cc(Br)ccc32)cc1F	1	0.39
CCCCc1nc2ccccc2c(=O)n1-c1cccc(C)c1	1.1	3.1
Cc1cccc(-n2c(/C=C/c3cn(C)c4ccccc34)nc3ccccc3c2=O)c1	0.78	-2.4
CC(CC1NCc2ccccc2-n2cccc21)c1ccccc1 (stereo not drawn)	0.94	-1.4
CC(C)CC1N=C(c2ccccc2)c2ccccc2N(CC(=O)Nc2cccc(F)c2)C1=O (stereo not drawn)	0.83	-2.4
Cc1nc2cc(-c3cccc(F)c3)nn2c(C)c1CCC(=O)N1CCC2(CC1)OCCO2	1	1
O=C(Cn1c[n+]([N-][N+](=O)[O-])cn1)Nc1ncc(Br)cc1Br	0.99	-0.38
COc1ccc(-n2c(/C=C\c3ccccc3F)nc3ccccc3c2=O)c(OC)c1	1	0.46

Taken from the results shown (two entries):
SMILES	CBX7 inh	CBX7 inh z-score
O=C(Cn1c[n+]([N-][N+](=O)[O-])cn1)Nc1ncc(Br)cc1Br	0.99	-0.38
COc1ccc(-n2c(/C=C\c3ccccc3F)nc3ccccc3c2=O)c(OC)c1	1	0.46

Next section.
SMILES	CBX7 inh	CBX7 inh z-score
COc1ccc(-n2c(/C=C/c3cccc(F)c3)nc3ccccc3c2=O)c(OC)c1	0.99	-0.25
COc1ccc2[nH]c(C)c(CCNCc3ccc4ccccc4n3)c2c1	0.55	-8.3
Cc1cccc(CN2C(=O)C(C)N=C(c3ccccc3)c3ccccc32)c1 (stereo not drawn)	0.91	-2.2
CCOC(=O)c1c(C)n(CCCOC(C)C)c2ccccc12	0.93	-0.82
Cc1cc(NC(=O)CCc2nc(C3=CCN(C)CC3)no2)no1	1	0.74
O=C1CSC(c2ccc(Br)cc2)c2c(-c3ccccc3)nn(-c3ccccc3)c2N1 (stereo not drawn)	0.78	-5.8
O=C(CN1CCOCC1)NCC(=O)Nc1ccc(Br)cc1C(=O)c1ccccc1	0.99	-0.28
O=C1CN=C(c2ccccc2)c2cc(Cl)ccc2N1Cc1ccccn1	0.91	-0.94
COc1cccc(CN2CCN(Cc3ccc(Cl)cc3)CC2)c1	0.97	-0.73
CCCCCCc1cc(O)c2c3c(c(=O)oc2c1)CCC(C)C3 (stereo not drawn)	1.1	3.1
Cn1cc(CCC(=O)N2CCC3(CC2)OCCO3)c2ccccc21	1	0.16
Cc1ccc(C)c(NC(=O)CN2CC(c3ccccc3)CC2=O)c1 (stereo not drawn)	1.1	2.4
O=C(COc1ccccc1)N1CCN(Cc2cccnc2)CC1	0.94	-1.4
CSc1ccc(CN2CCN(Cc3ccccc3Cl)CC2)cc1	1	0.47
Cc1ccc(NC(=O)CN2C(=O)C(C)N=C(c3ccccc3)c3ccccc32)c(C)c1 (stereo not drawn)	0.9	-1.9
Cc1ccc(-n2c(/C=C/c3ccc(F)c(F)c3)nc3ccccc3c2=O)cc1C	0.93	-0.68
COc1ccc(Cl)cc1NC(=O)CN1C(=O)C(C)N=C(c2ccccc2)c2cc(Cl)ccc21 (stereo not drawn)	0.98	-0.34
CCOc1ccccc1CN(CCc1ccc2c(c1)OCO2)Cc1ccccc1OC	0.95	-1.5
Cc1cccc(NC(=O)CN2C(=O)CN=C(c3ccccc3)c3cc(Br)ccc32)c1C	0.87	-2.2
COCCNC(=O)CN1C(=O)CN=C(c2ccccc2)c2ccccc21	1	1.1
O=C(CNS(=O)(=O)c1ccccc1)Nc1ccc(Cl)cc1C(=O)c1ccccc1	1.1	2.5
OC(c1ccccc1)(c1ccccc1)c1ccncc1	1	1.1
Cc1cccc(C)c1-n1nnnc1C1(NCCc2c(C)[nH]c3c(Cl)ccc(Cl)c23)CCCCC1	0.65	-0.34
CCOc1cc2c(cc1OCC)-n1cccc1C(c1ccc(OC)c(OC)c1)NC2 (stereo not drawn)	0.86	-2.8
Cc1cc(C)cc(NC(=O)CN2C(=O)CN=C(c3ccccc3)c3cc(Cl)ccc32)c1	0.82	-8.6

6 structures from above, sorted by length of the SMILES, smallest number first.
SMILES	CBX7 inh	CBX7 inh z-score
O=C(COc1ccccc1)N1CCN(Cc2cccnc2)CC1	0.94	-1.4
Cc1cc(NC(=O)CCc2nc(C3=CCN(C)CC3)no2)no1	1	0.74
CCC(=O)N1CC(=O)Nc2ccc(F)cc2C1c1ccc(F)cc1 (stereo not drawn)	0.96	-0.17
COCCNC(=O)CN1C(=O)CN=C(c2ccccc2)c2ccccc21	1	1.1
Cc1cccc(-n2c(/C=C\c3ccc(F)cc3)nc3ccccc3c2=O)c1	1.3	9.5
CC(C)(C)c1ccc(OCC(=O)Nc2ccc(Cl)cc2C(=O)c2ccccc2)cc1	0.93	-0.49

Following part:
SMILES	CBX7 inh	CBX7 inh z-score
Cc1ccc(NC(=O)CN2C(=O)C(C)N=C(c3ccccc3F)c3cc(Cl)ccc32)cc1F (stereo not drawn)	0.84	-2.6
CCC(=O)N1CC(=O)Nc2ccc(F)cc2C1c1ccccc1 (stereo not drawn)	1.1	0.14
O=C1CN(C(=O)CN2CCCCC2)C(c2ccccc2)c2cc(Br)ccc2N1 (stereo not drawn)	1	0.0046
CCC(C)n1[nH]c(=O)c2c1NC(=O)CSC2c1ccc(OC)cc1 (stereo not drawn)	1	0.073
Cc1c(Cl)cccc1NC(=O)CN1C(=O)CN=C(c2ccccc2)c2cc(Br)ccc21	0.87	-2
CCOc1cc2c(cc1OCC)-n1cccc1C(c1ccccc1C(F)(F)F)NC2 (stereo not drawn)	0.9	-0.99
CCCCOc1ccc(C(=O)Nc2ccc(Cl)cc2C(=O)c2ccccc2)cc1	0.94	-1.7
O=C(Cc1ccccc1)N1CCN(Cc2ccccn2)CC1	1.1	2.3
CCc1ccc(NC(=O)CN2C(=O)CN=C(c3ccccc3)c3cc(Br)ccc32)cc1	0.77	-1.5
Cn1cc(/C=C/c2nc3ccccc3c(=O)n2-c2ccccc2)c2ccccc21	0.75	-2.8
COc1ccc(C2SCC(=O)Nc3c2c(C)nn3-c2ccccc2)cc1 (stereo not drawn)	1	0.01
COc1ccc(-n2c(/C=C\c3ccccc3F)nc3ccccc3c2=O)cc1OC	0.99	-0.57
COc1ccc(-n2c(/C=C/c3ccc4c(c3)OCO4)nc3ccccc3c2=O)cc1	0.83	-0.59
O=C(CN1CC(c2ccccc2)CC1=O)Nc1ccc(F)c(Cl)c1 (stereo not drawn)	1	0.42
O=C(c1ccc2nc(-c3cccs3)c(-c3cccs3)nc2c1)N1CCC2(CC1)OCCO2	0.94	-0.16
COc1ccc(C2SCC(=O)Nc3c2c(-c2ccccc2)nn3-c2ccccc2)cc1 (stereo not drawn)	0.76	-2.7
COc1cccc(/C=C/c2nc3ccccc3c(=O)n2-c2ccc(C)c(C)c2)c1	0.95	-1.3
CC1=Nc2cc(C(=O)N3CCC4(CC3)OCCO4)ccc2Sc2ccc(Cl)cc21	0.81	-4.9
Fc1ccc(C2CC(c3cccnc3)Nc3ncnn32)cc1 (stereo not drawn)	1.1	1.4
O=c1c2ccccc2nc(/C=C/c2ccccc2)n1-c1ccc(F)c(Cl)c1	1	2.5
COc1cccc(/C=C/c2nc3ccccc3c(=O)n2-c2ccc(C)cc2)c1OC	1.1	2.6
CN1CCCC(C(O)(c2ccccc2)c2ccccc2)C1 (stereo not drawn)	1.1	1.9
Cc1ccc2c(c1)C1CN(C)CCC1N2C(=O)CCCCCN1C(=O)c2ccccc2C1=O (stereo not drawn)	1	2.5e-05
COc1ccccc1OCCCn1cc(C(=O)c2ccccc2)c2ccccc21	0.88	-1.3
N#CSCC(=O)N1c2ccccc2CCc2ccccc21	0.98	-0.44

The list goes on.
SMILES	CBX7 inh	CBX7 inh z-score
COc1ccc(CNCCc2cccc(Cl)c2)cc1OC	0.92	-2.9
CCC(=O)N1CC(=O)Nc2ccc(Br)cc2C1c1ccc(F)cc1 (stereo not drawn)	1	0.59
Cc1ccc(NC(=O)CN2CC(c3ccccc3)CC2=O)cc1 (stereo not drawn)	1.2	1.8
Cc1cccc(-n2c(/C=C/c3cccnc3)nc3ccccc3c2=O)c1	0.93	-1.7
Cc1cc(-n2c(/C=C/c3cccc(O)c3)nc3ccccc3c2=O)ccc1Br	1	0.47
O=C(c1ccccc1)N(c1ccc(Cl)cc1)C1CN2CCC1CC2 (stereo not drawn)	0.94	-0.71
Clc1ccc(C2NCc3ccccc3-n3cccc32)cc1 (stereo not drawn)	1	-0.16
COc1ccc2[nH]c(C)c(CCNCC(C)(C)C)c2c1	1.1	1.3
Cc1ccc(C)c(C2NCc3ccccc3-n3cccc32)c1 (stereo not drawn)	0.94	-0.6
CCc1ccccc1NC(=O)CN1C(=O)CN=C(c2ccccc2)c2ccccc21	1.2	1.8
CCOc1ccc(C2C3C(=NN2C(C)=O)C2CCN3CC2)cc1 (stereo not drawn)	1	0.68
CCOC(=O)C1(c2ccccc2)CCN(Cc2cccc(C(=O)O)c2)CC1	0.97	-0.79

Entries of single compounds from above:
Listed for CN1CCCC(C(O)(c2ccccc2)c2ccccc2)C1 (stereo not drawn) : CBX7 inh: 1.1; CBX7 inh z-score: 1.9
Listed for Clc1cccc(C2NCc3ccccc3-n3cccc32)c1 (stereo not drawn) : CBX7 inh: 0.94; CBX7 inh z-score: -3
